Screens (PubChem)
VDR inh: inhibitors of human vitamin D receptor; Potency, µM, for the others: max response, negative = inhibition, actives largely listed as inhibitors; AID 504847; hit rate 0.93% among 400,000; VDR-SRC2-3 peptide fluorescence polarization, 2 h; P11473; active = well fitted inhibition curve with a large enough effect; inconclusive = small, poorly fitted or top-dose-only effect, or another doubt; inactive = no such curve, though single readings can be large or run the other way; note: series mostly up to about 120 µM
Target sequence (P11473 whole entry, looked up): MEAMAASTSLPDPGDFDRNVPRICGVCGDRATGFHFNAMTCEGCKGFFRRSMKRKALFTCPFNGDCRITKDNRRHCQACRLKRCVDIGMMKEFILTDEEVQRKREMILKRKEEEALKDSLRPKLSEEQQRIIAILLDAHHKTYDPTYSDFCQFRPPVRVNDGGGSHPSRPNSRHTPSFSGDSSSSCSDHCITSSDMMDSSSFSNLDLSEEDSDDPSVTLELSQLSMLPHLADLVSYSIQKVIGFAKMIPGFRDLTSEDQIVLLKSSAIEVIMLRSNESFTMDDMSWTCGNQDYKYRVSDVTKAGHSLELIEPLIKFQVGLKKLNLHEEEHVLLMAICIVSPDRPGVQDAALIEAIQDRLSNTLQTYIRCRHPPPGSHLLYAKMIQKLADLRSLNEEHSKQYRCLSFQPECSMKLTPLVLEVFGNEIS
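After 23 nl compound addition and a short centrifugation, plates sat for 2 hours at ambient temperature; polarization of fluorescence then indicated loss of VDR binding to peptide SRC2-3.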
Active calls of the source: *; ? = inconclusive; & = joins results of further samples; [ ] = remark or other dose. % is set by controls: 0 for no effect and ±100 for the full control effect; potency is the fitted concentration of half-maximal effect. Not all compounds are listed; the hit share may differ from the screen's.

entry	mol	VDR inh
1	CCOC(=O)/C(=C\Nc1ccccc1C(F)(F)F)Sc1ncc(C(F)(F)F)cc1Cl	-6%
2	CCc1cccc(CC)c1NC(=O)Cn1nnc2sc(-c3ccccc3)cc2c1=O	-11%
3	CCCC/C=C1/CCC(CN(C)C)C1=O (stereo unspecified)	?
4	Clc1ccccc1OCc1nn2c(-c3ccncc3)nnc2s1	-15%
5	Cc1cccc2c1cnn2C(=O)CCC(=O)NC1CCCCC1	-26%
6	CC(C)(C)c1ccc(C(=O)Oc2ccc3c(c2)OCC3=O)cc1	14%
7	CCN1CCN(CCCNC(=O)c2ccc3c(c2)NC(=O)c2ccccc2S3)CC1	-19%
8	COc1ccc(OC)c(NC(=O)c2ccccc2NC(=O)c2ccco2)c1	12%
9	CSCCC(C(=O)Nc1ccc2c(c1)OCO2)N1C(=O)c2ccccc2C1=O (stereo unspecified)	-9%
10	Cc1cccc(C)c1NC(=O)CCS(=O)(=O)c1cccc2nonc12	-5%&-5%
11	O=C(NN1C(=O)C2CC=C(Cl)CC2C1=O)c1ccncc1 (stereo unspecified)	3%
12	CCOC(=O)c1c(NC(=O)N/N=C/c2ccccc2OCC)sc(C(C)=O)c1C	29%
13	Cc1cc(NC(=O)c2cc(CC(C)C)on2)no1	-8%
14	O=C(CO/N=C/c1ccccc1OC(F)F)NCc1ccco1	6%
15	CCOc1ccccc1CNC(=O)CCCn1c(=O)c2cccn2c2ccc(F)cc21	11%
16	COC(Cn1c(-c2cccc(S(=O)(=O)N(C)C)c2)n[nH]c1=S)OC	-22%
17	CCOc1ccc(CCNC(=O)CCc2c(C)nc3c(-c4ccccc4)c(C)nn3c2C)cc1OCC	-13%
18	O=C(O)CNS(=O)(=O)c1cc(Cl)c(Cl)cc1Cl	-13%
19	O=C(Cc1ccc(Cl)cc1)Nc1nnc2n1CCS2	0%
20	C/C(N)=C(/C#N)C(=O)COC(=O)C1Cc2ccccc2CN1S(C)(=O)=O (stereo unspecified)	22%&7%
21	CCOC(=O)C1CCCN(Cc2cn(C)nc2-c2ccc3c(c2)OCCO3)C1 (stereo unspecified)	4%
22	CC(C)N=C(NC#N)SCC(=O)NC(C)(C)C	8%
23	CCOc1ccc(NC(=S)C(C#N)=C2N(C)c3ccccc3N2C)cc1	-14%
24	O=C1C=C(NCCN2CCOCC2)CC(c2ccccc2)C1 (stereo unspecified)	-12%
25	O=C(COC(=O)CCc1ccc(S(=O)(=O)N2CCOCC2)cc1)NCc1ccc(Cl)cc1	-5%
26	CCSc1nnc(NC(=O)Cc2ccc(OC)cc2)s1	1%
27	CC1CCCC(NC(=O)CNC(=S)N(Cc2ccccc2)Cc2cccs2)C1C (stereo unspecified)	-13%
28	O=c1c(F)cn(C2CCCO2)c(=O)n1Cc1ccc(Cl)cc1 (stereo unspecified)	-4%
29	COC(=O)c1c(NC(=O)C2CCCCC2C(=O)O)sc2c1CCCCC2 (stereo unspecified)	-15%
30	O=C(O)c1ccc(Nc2nc(-c3ccc([N+](=O)[O-])cc3)nc3ccccc23)cc1	7%
31	COc1cn(-c2ccccc2)nc1C(=O)Nc1ccc(C)cc1	9%
32	Cc1cccc(C)c1NC(=O)CSc1nnc(-c2ccncc2)n1Cc1ccco1	-7%
33	Cc1ccc(C(=O)N2CCC(C)CC2)cc1NC1=NC2CS(=O)(=O)CC2S1 (stereo unspecified)	-3%
34	Cc1ccc(CS(=O)(=O)c2ncc(Cl)c(C(=O)Nc3ccc(OC(F)F)cc3)n2)cc1	?
35	CN(C)CC(c1ccccc1)c1ccccc1	0%
36	COc1ccc(OC2OC3COC(C)(C)OC3C(O)C2NC(C)=O)cc1 (stereo unspecified)	-7%
37	O=C(c1cc2c(s1)CCCC2)n1cccn1	-3%
38	CCNC(=O)CC1C(=O)N(c2ccc(OC)cc2)C(=O)N1CCOC (stereo unspecified)	17%
39	Cc1cccn2c(=O)nc(SCC(=O)NCCc3ccccc3)nc12	-5%
40	CC1C(=O)CCC1(C(=O)O)c1ccccc1 (stereo unspecified)	-7%
41	CCOC(=O)c1c(C)[nH]c(C(=O)CN2C(=O)NC(C)(c3ccc(C)cc3)C2=O)c1C (stereo unspecified)	2%
42	Cc1oc(/N=C/c2ccc(F)cc2)c(C#N)c1C	-20%
43	CCCCSc1nnc(CCC)n1N	-10%
44	CC(C)[C@H](CO)Nc1nc(NCc2ccc(S(N)(=O)=O)cc2)c2ncn(C(C)C)c2n1	-8%
45	Cc1cc(NC(=O)c2ccc(Cl)cc2)cc(C)c1OCC(=O)N1CCOCC1	-8%
46	CCOc1cc(C(N)=O)cc(Br)c1OCc1ccccc1	-14%
47	CN(CC(=O)Nc1cccc(F)c1)C(=O)Cc1n[nH]c(=O)c2ccccc12	-13%
48	O=S(=O)(c1ccc(Br)s1)N1CCN(CCOc2ccccc2)CC1	3%
49	CCOC(=O)C1=C(CNCc2ccc(C)cc2)NC(=O)NC1c1ccc(OC)cc1 (stereo unspecified)	9%
50	CC(=O)C1=C(C)NC(=O)CC1c1ccccc1Cl (stereo unspecified)	5%
51	COc1cccc(-c2n[nH]c3c2C(c2ccccn2)N(C)C3=O)c1 (stereo unspecified)	-7%
52	CCC(=O)c1ccccc1OCCCN1C(=O)NC(C)(C)C1=O	-1%
53	C=CCn1c(SCC(=O)N(C)c2c(N)n(Cc3ccccc3)c(=O)[nH]c2=O)nnc1-c1ccccc1OC	-3%
54	O=C(CSc1nnc(-c2cccs2)n1-c1ccccc1)NCc1ccco1	12%
55	O=C(/C=C/c1ccc(F)cc1)NC(=S)NNC(=O)c1cccnc1	-2%
56	CCOC(=O)c1ccc(NC(=O)Cn2cc(C(=O)c3ccc(Cl)cc3)c(=O)c3ccc(C)nc32)cc1	15%
57	CN(CC1COc2ccccc2O1)C(=O)CSc1nncs1 (stereo unspecified)	-7%
58	Clc1ccc(Sc2cc(Cl)c(-c3ccccc3)nn2)cc1	-17%
59	COc1cccc(NC(=O)Nc2nnc(CC(=O)NCc3ccccc3)s2)c1	-21%
60	CC(Oc1cc2oc(=O)cc(-c3ccccc3)c2cc1Cl)C(=O)NCC1CCC(C(=O)O)CC1 (stereo unspecified)	-12%

The listing continues.
entry	mol	VDR inh
61	O=C(CCCCCn1c(=S)[nH]c2ccc(N3CCOCC3)cc2c1=O)NCCc1ccccc1	-5%
62	COc1ccccc1CNCCS(=O)(=O)NCc1ccccc1OC	-8%
63	Cc1ncc(CSc2nnnn2-c2ccccc2)c(N)n1	10%
64	COc1cc(/C=C2/C(=O)NN(c3cccc(Cl)c3)C2=O)cc(OC)c1O	79µM*
65	O=C(O)/C=C/C(=O)NCCC(c1ccccc1)c1ccccc1	13%
66	Cc1cc(NCCCN2CCOCC2)n2nc(C)c(-c3ccccc3)c2n1	-1%
67	CCC(=O)Nc1ccccc1N1CCN(c2ccc(F)cc2)CC1	-8%
68	COC(=O)c1ccccc1NC(=O)NCC1CCCO1 (stereo unspecified)	13%
69	CC(C)(C)OC(=O)N/N=C/c1ccc(N2CCOCC2)s1	-9%
70	CCc1ccc(C2CC(=O)c3c([nH]c(C(=O)OC4CCCCCC4)c3C)C2)cc1 (stereo unspecified)	-14%
71	Cc1cccc(NC(=O)c2nc[nH]c2C(=O)N2CCc3ccccc3C2)c1	-4%
72	CC(OC(=O)C1CCN(S(=O)(=O)c2ccc3c(c2)OCCO3)CC1)C(=O)N(C)c1ccccc1 (stereo unspecified)	-25%
73	CO[C@H]1/C=C/O[C@@]2(C)Oc3c(C)c(O)c4c(O)c(c(/C=N\N5CCN(C6CCCC6)CC5)c(O)c4c3C2=O)NC(=O)/C(C)=C\C=C\[C@H](C)[C@H](O)[C@@H](C)[C@@H](O)[C@@H](C)[C@H](OC(C)=O)[C@@H]1C	11µM*
74	CCNC(=O)c1cccc(NC(=O)C2CC(=O)N(CCc3ccccc3)C2)c1 (stereo unspecified)	-1%
75	O=C(c1ccccc1)N1CCCCC(S(=O)(=O)c2ccccc2)C1=O (stereo unspecified)	-6%
76	C/C(=N\NC(=O)C1(C)CC1(Br)Br)c1ccc(NC(=O)C2CCC2)cc1 (stereo unspecified)	-7%
77	O=C(CCc1ccccc1)NCc1ccccc1	2%
78	O=C(NCc1ccccc1)N[C@@H](Cc1c[nH]c2ccccc12)C(=O)O	-11%
79	C/C(=N\NC(=O)c1nn(C)cc1Br)c1ccc(NC(=O)c2ccncc2)cc1	10%
80	COc1ccccc1NC(=O)c1ccc(NC(=O)COC(=O)C2(C)CC2(Cl)Cl)cc1 (stereo unspecified)	-14%
81	O=C(/C=C/c1ccc2c(c1)OCO2)Nc1nc2ccccc2s1	3%
82	O=C1C2C3C=CC(C3)C2C(=O)N1c1ccc2c(c1)OCO2 (stereo unspecified)	3%
83	CC1=C(C(N)=O)C(c2ccc(Cl)c(Cl)c2)n2ncnc2N1 (stereo unspecified)	4%
84	CCN1C(=O)N[C@@H](c2ccccc2)[C@@H](C(=O)OC)[C@H]1C	9%
85	C[C@@H](C(=O)Nc1ccc2ccccc2c1)[C@H]1C[C@]1(C)[C@H](NS(=O)(=O)c1ccc(-c2ccccc2)cc1)c1ccccc1	0%
86	O=C1CC[C@@H](C(=O)O)N1	-2%&-2%
87	Cc1cccc(N(C)C(=O)c2cc(S(=O)(=O)N3CCCCC3)c[nH]2)c1	-5%&1%
88	Cc1ccc(NC(=O)CSCC(=O)Nc2ccc(S(=O)(=O)N3CCCC3)cc2)cc1	21%
89	CCOCCn1c(CN(Cc2ccccc2)Cc2ccccc2)nc2c1c(=O)[nH]c(=O)n2C	11%
90	COc1ccccc1NC(=O)CCS(=O)(=O)c1cc2c(cc1Cl)NC(=O)CO2	-5%

Five entries from above, reformatted:
cpd | VDR inh | SMILES
5 | -26% | Cc1cccc2c1cnn2C(=O)CCC(=O)NC1CCCCC1
6 | 14% | CC(C)(C)c1ccc(C(=O)Oc2ccc3c(c2)OCC3=O)cc1
7 | -19% | CCN1CCN(CCCNC(=O)c2ccc3c(c2)NC(=O)c2ccccc2S3)CC1
8 | 12% | COc1ccc(OC)c(NC(=O)c2ccccc2NC(=O)c2ccco2)c1
9 | -9% | CSCCC(C(=O)Nc1ccc2c(c1)OCO2)N1C(=O)c2ccccc2C1=O (stereo unspecified)

The list continues:
entry	mol	VDR inh
91	COc1ccc(Cc2nc3ccc(C(=O)N(C)C(C)c4nccs4)cc3o2)cc1 (stereo unspecified)	8%
92	CCc1ccc(CNC(=O)c2cc(=O)[nH]c3ccc(S(=O)(=O)N4CCCCC4)cc23)cc1	16%
93	CCOc1ccc(C(=O)OCCN(C)C)cc1	4%
94	C[C@@H]1C[C@](C)(C(=O)c2ccc3c(c2)OCO3)C=C1c1ccc2c(c1)OCO2	1%
95	CN(C)c1ccc(C(CNC(=O)Cc2ccc(Cl)cc2)N2CCOCC2)cc1 (stereo unspecified)	13%
96	Clc1ccc(OCc2cn3ccccc3n2)c2ncccc12	11%
97	Cc1nc2ccccc2n1CC(O)Cn1c(C(F)(F)F)nc2ccccc21 (stereo unspecified)	-14%
98	CCn1c(SCC(=O)Nc2cc(C(C)(C)C)nn2-c2ccccc2)nnc1-c1cccs1	-7%
99	C=CCSc1nnc(C)c(/C=C/Nc2ccc(Cl)cc2)n1	-1%
100	CCCCCCSc1cccc(-c2nc3ccc(Cl)cn3c2NCCCC)c1	-12%
101	O=C(Nc1ccccc1O)c1cccc(NC(=O)c2ccco2)c1	-10%
102	N#Cc1ccc(-c2nc3ccccc3c(=O)n2O)cc1	-2%
103	O=C(OCC(=O)N1CCOCC1)c1ccc(N2CCOCC2)c([N+](=O)[O-])c1	13%
104	Cc1ccccc1-c1nc(SCC(=O)NCc2ccco2)c2c(=O)n(C)c(=O)n(C)c2n1	-6%
105	CCCC(CCC(=O)Nc1ccc(C(=O)OC)cc1)C(=O)O (stereo unspecified)	3%

Five compounds out of the list, ordered by SMILES length, falling.
entry	mol	VDR inh
98	CCn1c(SCC(=O)Nc2cc(C(C)(C)C)nn2-c2ccccc2)nnc1-c1cccs1	-7%
103	O=C(OCC(=O)N1CCOCC1)c1ccc(N2CCOCC2)c([N+](=O)[O-])c1	13%
95	CN(C)c1ccc(C(CNC(=O)Cc2ccc(Cl)cc2)N2CCOCC2)cc1 (stereo unspecified)	13%
100	CCCCCCSc1cccc(-c2nc3ccc(Cl)cn3c2NCCCC)c1	-12%
102	N#Cc1ccc(-c2nc3ccccc3c(=O)n2O)cc1	-2%

Additional results follow:
entry	mol	VDR inh
106	Cc1cccc(NC(=S)N(Cc2ccc(Br)cc2)Cc2ccc(C(=O)O)cc2)c1	-13%
107	COc1ccc(C[C@H]2CN3C(=NC[C@H]3Cc3ccccc3)N2CCNC(=O)CCC2CCCCC2)cc1	-8%
108	O=C(NN=C1CCCCCC1)c1cn(-c2ccccc2)nc1-c1ccccc1	-9%
109	Cc1ccc(NC(=O)CCC(=O)N2Cc3ccccc3Oc3ncccc32)c(C)c1	9%
110	CCNc1nc(NC(C)C)nc(Oc2ccc(/C=N/O)cc2)n1	-18%
111	Cc1ccc(S(=O)(=O)NCCSC(C)(C)C)cc1	41%[activator]
112	CC(=O)c1ccc(N2CCN(CC(=O)N(C3CC3)C3CCS(=O)(=O)C3)CC2)c(F)c1 (stereo unspecified)	-3%
113	CCO/C=C/C(O)(CNC(=O)COc1ccccc1F)C(F)(F)F (stereo unspecified)	6%
114	CCOc1ccccc1CNC(=O)C1CCN(c2nc3ccccc3o2)CC1	0%
115	CCOC(=O)CCNC(=O)N1CCCC(C(=O)c2cccc(Cl)c2)C1 (stereo unspecified)	1%
116	COc1cc(-c2oc3ccc(C)cc3c(=O)c2O)cc(OC)c1OC	-20%
117	Cn1c(CCN2CCCC2)nc2cc(NS(=O)(=O)c3ccccc3)ccc21	-5%
118	Cc1ccc(N(C(=O)C(F)(F)F)C(C(=O)NC2CCCCC2)c2cccs2)cc1 (stereo unspecified)	-15%
119	O=C(c1n[nH]c(=O)c2ccccc12)N1CCN(c2ccccc2)CC1	12%
120	CC(C)n1cc(NC(=O)c2cc(-c3ccccc3)on2)cn1	2%
